# Screening data (PubChem)
# miR-21 reporter: raises the signal of a miR-21 reporter; HeLa miR-21 FLuc reporter, luciferase, 48 h; Potency, µM (titrated, usually from 38.3 µM), inactives show at the top dose reporter change, positive = more light; 340,000 tested, under 10 active; active = well fitted rising curve with a large enough effect; inconclusive = small, poorly fitted or top-dose-only effect; inactive = no such curve, though single readings can be large or run the other way;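 note: % of control where 0% means no effect; miR-21 action dims this reporter so a rising signal means less miR-21 action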
#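 HeLa cells stably expressing CMV-driven firefly luciferase with a downstream miR-21 binding sequence, endogenously expressing miR-21, were treated with titrations (up to about 40uM final) for 48 hours at 37 degree Celsius. Luciferase luminescence was read after lysis.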
# Rango release inh: inhibition of RanGTP-driven Rango-importin beta dissociation | Biochemical FRET Rango-importin beta, RanGTP-induced dissociation | 340,000 compounds, 0.071% hits | O95149+P62826 | Potency, µM (titrated, usually from 46.1 µM), for the others: at the highest dose activity change, negative = inhibition; active means falling FRET ratio curve, often poorly fitted, with flat reads before Ran was added; inconclusive means other falling curves, or compound fluorescence or quenching; inactive means flat or rising ratio curve;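 note: potency is the fitted concentration of half-maximal effect; % of control where 0% means no effect; nearly all actives have a fitted effect of over 45% in size; -100% = wells without RanGTP and RCC1; the record marks most hits as doubtful in a second field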
#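 Compounds preincubate 5 min with complex of recombinant Rango and importin beta in PBS with 1 mM DTT. Ran (0.6 uM) loaded with 2 mM GTP plus 0.2 uM RCC1 starts dissociation; FRET is recorded 45 min later.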
# GLA inh pH 4.5: alpha-galactosidase A (human) inhibition, pH 4.5; purified enzyme, 4-MU-alpha-Gal fluorescence, pH 4.5; activity change, negative = inhibition, % at 105 µM; 230,000 tested, under 10 active; inconclusive = small, poorly fitted or top-dose-only inhibition, or a rising curve; inactive = flat fitted curve, though single readings scatter; no compound was filed as active;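 note: 0% = full activity with enzyme and -100% = basal without enzyme; dose as in the result columns while the protocol names 77 µM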
# Rango complex inh: inhibitors of Rango-importin beta complex formation; Q14974; Potency, µM (top dose mostly 92.2 µM), without a hit: at the top dose inhibition of complex formation; AID 540263; Rango CFP/YFP FRET sensor + importin beta, 45 min; 340,000 compounds, 0.031% hits; active = rising FRET ratio curve, often small or poorly fitted; inconclusive = mostly compound fluorescence or quenching in the first reads; inactive = flat curves in all reads;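 note: potency is the fitted concentration of half-maximal effect; 0% = DMSO wells and 100% = buffer wells lacking importin beta; nearly all actives have a fitted effect of over 15% in size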
# Target sequence (Q14974 whole entry, looked up): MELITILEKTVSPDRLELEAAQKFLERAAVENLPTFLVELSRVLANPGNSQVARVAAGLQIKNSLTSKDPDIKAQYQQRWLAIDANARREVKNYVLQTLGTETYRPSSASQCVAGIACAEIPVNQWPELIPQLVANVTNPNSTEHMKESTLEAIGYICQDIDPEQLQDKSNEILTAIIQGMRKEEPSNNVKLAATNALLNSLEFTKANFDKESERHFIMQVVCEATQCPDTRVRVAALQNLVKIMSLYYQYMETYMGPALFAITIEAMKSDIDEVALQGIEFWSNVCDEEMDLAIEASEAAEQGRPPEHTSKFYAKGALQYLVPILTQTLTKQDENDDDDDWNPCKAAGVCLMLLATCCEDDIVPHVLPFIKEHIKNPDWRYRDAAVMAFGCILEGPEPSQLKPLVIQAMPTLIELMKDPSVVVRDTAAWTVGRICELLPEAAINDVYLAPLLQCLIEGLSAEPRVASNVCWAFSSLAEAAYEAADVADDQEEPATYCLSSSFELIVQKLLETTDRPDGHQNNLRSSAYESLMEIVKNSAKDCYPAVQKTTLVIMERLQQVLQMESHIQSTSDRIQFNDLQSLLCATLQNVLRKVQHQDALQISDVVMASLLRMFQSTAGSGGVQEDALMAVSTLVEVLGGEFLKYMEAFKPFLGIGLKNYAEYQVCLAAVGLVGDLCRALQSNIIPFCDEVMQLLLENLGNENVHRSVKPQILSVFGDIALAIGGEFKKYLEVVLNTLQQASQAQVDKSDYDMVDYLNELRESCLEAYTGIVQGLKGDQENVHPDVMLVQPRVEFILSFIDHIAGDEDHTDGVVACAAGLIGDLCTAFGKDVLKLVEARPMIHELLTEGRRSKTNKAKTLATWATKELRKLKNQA
#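 FRET biosensor (snurportin 1 IBB flanked by EYFP and cerulean), 50 nM, with compound 5 min, then 0.125 microM importin beta in PBS, 1 mM DTT, 0.02% Tween-20, 0.1% BSA. CFP/YFP ratio read after 45 min at room temperature; pre-read flags interference.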
# * = called active by the depositor; ? = inconclusive; · = not tested or not shown. Some of the compounds tested; rates above refer to the full screens.
miR-21 reporter,Rango release inh,GLA inh pH 4.5,Rango complex inh,smiles
·,4%,·,-1.5%,CCn1nnc2cc(C(=O)OCC(=O)N(C)Cc3cccc(F)c3)ccc21
-1%,3%,5,-5.1%,COCCN1Cc2cccc(C(=O)NCc3cccs3)c2C1=O
-8%,1%,-8,-0.3%,O=C(Nc1ccccc1C(=O)N1CCCCCC1)c1cccc(S(=O)(=O)N2CCOCC2)c1
?,4%,-3,-1.6%,O=C1C=CC(=O)N1CCCCCCN1C(=O)C=CC1=O
-4%,-4%,-3,-0.3%,O=S(=O)(c1cccc2nsnc12)N1CCN(c2ccc(F)cc2)CC1
-33%,-12%,-2,4.5%,CC(=O)NC1(c2ccccc2)CCN(c2nc(C)cc(C)n2)CC1
-57%,-6%,-7,-3.9%,Cc1nc2ccccc2nc(C)c1=NOCc1ccccc1Cl
-7%,-1%,·,-5.0%,CCC1CN(C(=O)NCc2ccccc2)c2ccccc2O1 (stereo not given)
0%,14%,-11,-1.6%,CCN(CC)CCC(c1ccc2c(c1)OCO2)c1c(O)cc(OC)cc1OC (stereo not given)
4%,·,8,·,CC(=O)c1ccc(N2CCN(CC(=O)Nc3ccc(N4CCOCC4)cc3)CC2)cc1
-30%,-12%,-2,3.9%,CCCCCOC(=O)c1[nH]c2c(c1C)C(=O)C(C(=O)OC)C(C)C2 (stereo not given)
2%,1%,-2,2.8%,Cc1cc(N/C=C(\C#N)S(=O)(=O)c2ccc(Cl)cc2)nc(C)n1
-4%,-25%,0,-1.6%,CCOC(=O)c1ccccc1NC(=O)c1c(F)c(F)c(F)c(F)c1F
-9%,19%,-2,1.3%,COc1ccc(C2NC(=S)N3C(c4ccc(OC)cc4)NC(=S)N23)cc1 (stereo not given)
-2%,-5%,·,0.0%,CCOC(=O)Cc1csc(NS(=O)(=O)c2ccc([N+](=O)[O-])cc2)n1
-29%,-3%,3,-2.0%,CC(=O)Cc1nsc(NC(=O)c2ccccc2)n1
-1%,6%,3,-1.7%,CCN1CCN(Cc2oc(CO)cc(=O)c2O)CC1
·,4%,·,0.7%,O=C(NC1CCCC1)C(c1ccccn1)N(C(=O)c1csnn1)c1ccccc1Br (stereo not given)
·,-1%,·,0.0%,Cc1cccc(C(C)n2nnc3ccccc32)c1O (stereo not given)
·,6%,·,0.1%,Cc1ccc(S(=O)(=O)NC(CC(C)C)C(=O)N2CCN(C/C=C/c3ccccc3)CC2)cc1 (stereo not given)
·,0%,·,1.0%,Cc1ccccc1C(=O)NCC(c1ccco1)N1CCc2ccccc2C1 (stereo not given)
-3%,9%,3,-2.2%,Cc1cc(C)nc(NNC(=O)c2ccccc2O)n1
-16%,-1%,·,0.4%,COc1ccc(NC(=O)NNC(=O)COc2ccc3cc(Br)ccc3c2)cc1
-4%,22%,·,1.2%,CC(=O)NC12CC3CC(C1)CC(C(=O)N1CCN(S(=O)(=O)c4cccc(F)c4)CC1)(C3)C2
-2%,-9%,-1,-4.8%,CC(C)(C)S(=O)(=O)c1cnc(-c2ccccn2)nc1N
-3%,1%,2,1.6%,CCOC(=O)N1CCN(CC(=O)N2c3ccccc3CC2C)CC1 (stereo not given)
-41%,-4%,2,3.0%,N/C(=N\OC(=O)CCC1CCCC1)c1cccnc1
14%,1%,-9,9.1%,CN1CCC(N(C)C(=O)/C=C/c2cn(-c3ccccc3)nc2-c2cccs2)CC1
-3%,-15%,-4,3.7%,COc1ccc(C(=O)NC(=S)NCc2cccnc2)cc1Br
25%,2%,-7,-1.1%,CCOc1ccc(CN2CCN(CC3=Cc4cccc(OC)c4OC3)CC2CCO)cc1 (stereo not given)

# 3 entries already listed, arranged by the number in miR-21 reporter, smallest number first:
miR-21 reporter,Rango release inh,GLA inh pH 4.5,Rango complex inh,smiles
-33%,-12%,-2,4.5%,CC(=O)NC1(c2ccccc2)CCN(c2nc(C)cc(C)n2)CC1
-4%,-25%,0,-1.6%,CCOC(=O)c1ccccc1NC(=O)c1c(F)c(F)c(F)c(F)c1F
25%,2%,-7,-1.1%,CCOc1ccc(CN2CCN(CC3=Cc4cccc(OC)c4OC3)CC2CCO)cc1 (stereo not given)

# Next section
miR-21 reporter,Rango release inh,GLA inh pH 4.5,Rango complex inh,smiles
1%,-9%,·,-0.4%,COc1ccc(-c2cc(C)no2)cc1S(=O)(=O)Nc1cccc(CN2CCCC2)c1
·,3%,·,0.4%,O=C(c1cc(-c2cccnc2)nc2ccccc12)N1CCN(S(=O)(=O)c2ccc(Cl)s2)CC1
-6%,-2%,0,-1.1%,CC(=O)Nc1ccc(N2CCOCC2)c([N+](=O)[O-])c1
-24%,5%,10,-1.4%,Nc1nc(COc2ccc(F)cc2)nc(N2CCCCC2)n1
4%,-10%,-5,?,Cc1cc(C)c(Cc2c(C)nc3c(C(=O)NCc4ccco4)cnn3c2C)c(C)c1
7%,0%,?,4.8%,O=C(c1ccco1)N1CCN(C(=O)c2ccc(COc3ccc4c(c3)CCC4)o2)CC1
-56%,?,5,-3.2%,COc1ccc2cc(CCNC(=O)c3cccs3)c(=O)[nH]c2c1
12%,8%,-1,-0.3%,Cc1ccc(S(=O)c2ccc(NC(=O)C3CC3)cc2C#N)cc1 (stereo not given)
26%,7%,-1,?,Cc1ccc(C)c(NC(=O)C(Sc2nc3ccc(C)cc3[nH]2)c2ccccc2)c1 (stereo not given)
-7%,-7%,7,-3.6%,CCN1CCN(c2cc(C)c3cc(NC(=O)Cc4ccc(OC)c(OC)c4)ccc3n2)CC1
-2%,-2%,8,2.1%,CCOP(=O)(OCC)C(NC(=O)c1cc([N+](=O)[O-])cc([N+](=O)[O-])c1)C(F)(F)F (stereo not given)
-30%,-4%,-2,-2.5%,NC1=NC(=O)/C(=C\C=C\c2ccccc2)S1
·,-1%,·,-0.2%,CCC1(CC)NC(=O)N(CC(=O)OC(C)C(=O)Nc2ccc(Cl)cn2)C1=O (stereo not given)
-12%,1%,·,-1.1%,Cc1cc(Cl)nc(Cl)c1C(=O)NCc1ccc(Cl)cc1
2%,4%,·,-2.5%,COc1ccc(S(=O)(=O)N(CC(=O)NCC2CCCO2)Cc2ccccc2)cc1 (stereo not given)
16%,-8%,-12,-1.0%,COc1ccc(NS(=O)(=O)c2cc(NC(=O)CC3CCCC3)ccc2N2CCOCC2)cc1
0%,0%,6,0.3%,CC1=NNC(=O)C1CC(=O)N/N=C/c1ccc(C)o1 (stereo not given)
1%,-8%,·,-1.7%,O=C1N(Cc2ccccc2)c2ccc(Cl)cc2C12OCCO2
·,-15%,·,2.8%,CC1CCCCC1NC(=O)Cn1c(=O)cnc2ccccc21 (stereo not given)
-27%,8%,-11,-4.4%,CCCc1nn(C)c2c(=O)[nH]c(-c3cc(S(=O)(=O)Nc4ccc(NC(C)=O)cc4)ccc3OCC)nc12
2%,16%,4,-6.2%,O=C(C1CCC1)N1CCc2cc(S(=O)(=O)NCc3cccnc3)ccc21
?,-5%,·,-3.7%,Cc1cccc2c1-c1sc(C(=O)NCCCN3CCC(C)CC3)cc1CO2
-4%,22%,5,-1.2%,Cc1[nH]n(-c2ccccc2)c(=O)c1C=Nc1cccc(F)c1
-19%,4%,1,2.0%,CSc1ccc(Cl)c(C(=O)Nc2ccc(OCC(N)=O)cc2)c1
-32%,26%,6,0.0%,COc1ccccc1/C=C/C(=O)N1CCCC1
-43%,-9%,-1,1.0%,CCOC(=O)c1oc2cccc(OC(C)=O)c2c1C
1%,10%,-7,1.7%,COc1ccccc1N1CCN(S(C)(=O)=O)CC1
-2%,-10%,4,-0.2%,OCCC1CN(Cc2cccn2-c2nccs2)CCN1Cc1ccc(F)c(F)c1 (stereo not given)
-1%,-25%,-16,3.4%,COc1ccc(S(=O)(=O)N2CCN(C(=O)c3ccco3)CC2)cc1OC
-29%,1%,8,-0.9%,COc1ccc(C/C(C)=N/NC(=O)c2ccc(C)cc2C)cc1

# Remaining list, next part:
miR-21 reporter,Rango release inh,GLA inh pH 4.5,Rango complex inh,smiles
-6%,0%,·,-2.2%,CCCc1cc(=O)n2nc(N3CCC(C(=O)NCc4ccco4)CC3)sc2n1
-25%,?,3,?,Nc1cc2c(cc1O)CCCC2
4%,-5%,·,-1.7%,Cc1ccc(C)c2[nH]c(=O)c(CCNC(=O)c3ccc(S(=O)(=O)N4CCOCC4)cc3)cc12
-17%,2%,·,-0.5%,Cc1ccsc1/C=C(\CC(=O)O)c1nc2ccccc2o1
·,12%,·,-1.3%,CC1(c2ccccc2)NC(=O)N(CC(=O)N2CCN(S(=O)(=O)c3cccc([N+](=O)[O-])c3)CC2)C1=O (stereo not given)
-2%,-8%,-6,-2.4%,COC(=O)Cn1cnc2c(cnn2-c2ccccc2)c1=O
-1%,0%,2,-1.2%,c1ccc(SSc2ccccc2)cc1
-8%,-2%,-4,-1.1%,O=C(COC(=O)/C=C/c1cccc(Cl)c1)NCCc1ccccc1
-3%,3%,·,0.8%,O=C(CSc1nnc(NC(=O)C2CC(=O)N(c3ccccc3)C2)s1)NC1CCCC1 (stereo not given)
·,22%,·,0.9%,CCCOc1ccc(OC(=O)Cc2ccc(OC)c(S(=O)(=O)N3CCOCC3)c2)cc1
2%,19%,-12,-0.7%,CC(=O)Nc1ccc(S(=O)(=O)Oc2ccc(/C=C3\SC(N)=NC3=O)cc2)cc1
0%,25%,-15,-3.0%,CCN(CC)c1ccc(/C=C/C(=O)c2cccnc2)cc1
-10%,-17%,-2,1.6%,COC(=O)c1ccccc1NC(=O)CN1CCN(C(=O)c2ccco2)CC1
·,12%,·,-0.4%,COc1cc(CCC(N)c2cccc(O)c2)cc(OC)c1OC (stereo not given)
1%,9%,2,-2.8%,O=[N+]([O-])c1ccc(S(=O)(=O)CC(CN2CCCCC2)N2CCCCC2)cc1 (stereo not given)
-6%,-2%,0,1.0%,COC(=O)n1c(=O)oc2cc(S(=O)(=O)N3CCOCC3)ccc21
-1%,-5%,-3,2.3%,O=C(CSCc1cc(=O)[nH][nH]1)Nc1ccc(F)cc1
0%,3%,·,1.2%,CC(=O)c1cccc(N(C(=O)c2ccco2)C(C(=O)NC2CCCC2)c2cccs2)c1 (stereo not given)
1%,0%,·,0.2%,CCOC(=O)[C@@H]1[C@H]2COc3cc(OC)ccc3[C@@H]2N2C(=O)N(c3ccc(OC)cc3)C(=O)[C@]12C
-5%,-7%,-4,-3.8%,NC(=O)C1CCN(C(=O)C23CC4CC(CC(C4)C2)C3)CC1
20%,8%,3,-1.9%,Cc1cc(C(=O)N/N=C/c2ccc(C)o2)c2ccccc2n1
6%,11%,·,0.4%,O=C(NCc1ccncc1)C(=O)NCC1OCCN1S(=O)(=O)c1ccc(Br)cc1 (stereo not given)
-5%,?,·,?,N=c1c(C(=O)NC2CCCCC2)cc2c(=O)n3ccccc3nc2n1Cc1cccnc1
·,-12%,·,-0.4%,COc1ccc(CN2CC(COCc3ccccc3)Oc3ccccc3S2(=O)=O)cc1 (stereo not given)
-6%,-3%,1,1.5%,CCc1nnc(NC(=O)c2ccc(S(=O)(=O)NC3CCCCC3)cc2)s1
-23%,-13%,-7,4.0%,COCCn1c(SCCCc2ccccc2)nc2c1c(=O)[nH]c(=O)n2C
-2%,9%,4,-6.1%,O=C(COC(=O)/C=C/c1cccs1)Nc1cccc(S(=O)(=O)N2CCOCC2)c1
-3%,6%,10,-0.8%,CCOC(=O)C(C)Oc1ccc2c(C)cc(=O)oc2c1C(C)=O (stereo not given)
-53%,3%,-3,0.5%,Cc1nc(C#N)c(N/N=C/c2c(F)cccc2Cl)o1
7%,16%,-3,-1.4%,CCOC(=O)CSc1nnc(-c2ccc(OC)cc2OC)o1

# Record cards (already shown). Order of screens: miR-21 reporter, Rango release inh, GLA inh pH 4.5, Rango complex inh
# Profile of Cc1ccc(C)c2[nH]c(=O)c(CCNC(=O)c3ccc(S(=O)(=O)N4CCOCC4)cc3)cc12 → 4%, -5%, ·, -1.7%
# Profile of O=C(NCc1ccncc1)C(=O)NCC1OCCN1S(=O)(=O)c1ccc(Br)cc1 (stereo not given) → 6%, 11%, ·, 0.4%
# Profile of CC1(c2ccccc2)NC(=O)N(CC(=O)N2CCN(S(=O)(=O)c3cccc([N+](=O)[O-])c3)CC2)C1=O (stereo not given) → ·, 12%, ·, -1.3%
# Profile of CCc1nnc(NC(=O)c2ccc(S(=O)(=O)NC3CCCCC3)cc2)s1 → -6%, -3%, 1, 1.5%
